Bioassay records from PubChem BioAssay.
2A StopGo = High Throughput Screening for Foot and Mouth Disease Virus Antivirals | 410,000 tested, 1.2% active | human cells with a luciferase reporter of 2A StopGo recoding; control for the full effect not named in the record | Potency, µM (titrated, usually from 57.9 µM), inactives show top-dose signal change, negative = less light; active = well fitted falling curve with a large enough effect; inconclusive = small, poorly fitted or top-dose-only effect; inactive = no such curve, though single readings can be large or run the other way; tested in HEK293T cells; note: % is set by controls: 0 for no effect and ±100 for the full control effect; nearly all actives have a fitted effect of over 45% in size; luciferase light after 4 h
Cruzain Triton = qHTS Assay for Promiscuous and Specific Inhibitors of Cruzain (with detergent) | Potency, µM, for inactives: max response, negative = inhibition, usual class: inhibitors | Cruzipain (Trypanosoma cruzi), P25779 | AID 1478, 2009 | 200,000 tested, 0.43% active | purified cruzain, Z-FR-AMC fluorescence, 0.01% Triton; active = well fitted curve in the direction sought with a large enough effect; inconclusive = small, poorly fitted or top-dose-only effect, or another doubt; inactive = no such curve, though single readings can be large; an effect the other way counts as inactive or inconclusive;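 note: plate controls were neutral wells for no effect and buffer without enzyme for full effect; nearly all actives have a fitted effect of over 40% in size; top concentration of the series not given in the record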
Target sequence (P25779 123-467 limits assumed): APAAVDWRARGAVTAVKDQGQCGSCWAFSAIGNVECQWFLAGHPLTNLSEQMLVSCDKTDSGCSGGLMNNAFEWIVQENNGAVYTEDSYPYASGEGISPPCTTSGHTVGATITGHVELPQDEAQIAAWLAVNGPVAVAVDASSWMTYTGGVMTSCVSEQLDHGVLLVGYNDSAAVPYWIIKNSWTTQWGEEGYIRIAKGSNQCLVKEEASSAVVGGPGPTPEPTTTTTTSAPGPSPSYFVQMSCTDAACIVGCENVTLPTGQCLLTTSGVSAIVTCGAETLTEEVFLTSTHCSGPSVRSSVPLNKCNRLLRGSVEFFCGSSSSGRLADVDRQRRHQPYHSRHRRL
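In this qHTS format, compounds are incubated with 1.5 nM cruzain for 15 min at room temperature before 2 uM Z-FR-AMC is added. Release of AMC is followed at 360/450 nm, and progress is taken as the 60 s fluorescence difference.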
SARS PLpro yeast = qHTS of Yeast-based Assay for SARS-CoV PLP; S. cerevisiae expressing SARS-CoV PLpro, growth rescue; control for the full effect not named in the record; Potency, µM (top dose mostly 32.9 µM), inactives show at the top dose activity, positive = growth rescue; 330,000 tested, 0.19% active; note: 0% is about no effect; nearly all actives have a fitted effect of over 55% in size; growth read by luminescence after 48 h
MARV entry inh = qHTS for inhibitors of binding or entry into cells for Marburg Virus; Marburg virus pseudotyped entry inhibition, cell reporter; control for the full effect not named in the record; about a third of the inactives were read at about 46 µM; Potency, µM (series often up to 37.8 µM), for inactives: top-dose activity change, negative = inhibition, hits mostly inhibitors; 300,000 tested, 1.8% active; AID 540276, 2011; active = well fitted inhibition curve with a large enough effect; inconclusive = small, poorly fitted or top-dose-only effect, or effect the other way; inactive = flat fitted curve, though single readings scatter; tested in HEK293 cells; about a fifth of its hits are not listed in these tables; note: % is set by controls: 0 for no effect and ±100 for the full control effect; luciferase read-out
Lassa entry inh = qHTS for Inhibitors of binding or entry into cells for Lassa Virus; Potency, µM (highest dose often 37.9 µM), for inactives: at the highest dose activity change, negative = inhibition, hits mostly inhibitors; AID 540256, 2011; Lassa virus pseudotype entry inhibition, cell reporter; control for the full effect not named in the record; 300,000 tested, 1.2% active; active means well fitted inhibition curve with a large enough effect; inconclusive means small, poorly fitted or top-dose-only effect, or effect the other way; inactive means flat fitted curve, though single readings scatter; tested in HEK293 cells; note: % is set by controls: 0 for no effect and ±100 for the full control effect; nearly all actives have a fitted effect of over 50% in size; luciferase read-out
RE007 growth inh = qHTS Assay for Inhibitors of the HIV-1 protein Vpr; S. pombe RE007 Vpr strain, BacTiter-Glo ATP luminescence, 24 h; control for the full effect not named in the record; 360,000 tested, 0.21% active; Potency, µM (highest dose often 92.2 µM), for the others: at the top dose activity change, negative = less growth; AID 651644, 2012; active = well fitted falling curve with a large enough effect; inconclusive = small, poorly fitted or top-dose-only effect; inactive = no such curve, though single readings can be large or run the other way;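 note: % is set by controls: 0 for no effect and ±100 for the full control effect; nearly all actives have a fitted effect of over 50% in size; the assay follows cell death caused by Vpr and the record does not say whether a fall means rescue or toxicity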
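Fission yeast RE007 carrying one integrated HIV-1 vpr copy, seeded at OD 0.01 in PMG+AL medium with 23 nL pinned compound. Grown 24 h at 30 degrees; viability read by BacTiter-Glo luminescence after 5 min.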
Cruzain inh noDet = qHTS Assay for Promiscuous and Specific Inhibitors of Cruzain (without detergent); Cruzipain (Trypanosoma cruzi), P25779; purified cruzain, Z-FR-AMC fluorescence, no detergent; Potency, µM, for the others: max response, negative = inhibition, hits mostly inhibitors; 200,000 tested, 2.3% active; active = well fitted curve in the direction sought with a large enough effect; inconclusive = small, poorly fitted or top-dose-only effect, or another doubt; inactive = no such curve, though single readings can be large; an effect the other way counts as inactive or inconclusive;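 note: plate controls were enzyme without inhibitor for no effect and buffer without enzyme for full effect; nearly all actives have a fitted effect of over 40% in size; top concentration of the series not given in the record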
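Detergent-free condition (0.00005% Triton X-100) in acetate buffer pH 5.5 with DTT. 1.5 nM enzyme and compound were pre-mixed 15 min, then 2 uM Z-FR-AMC substrate added; reaction progress from fluorescence change between first and third reads (60 s).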
NS1 inh = qHTS Assay for Inhibitors of Influenza NS1 Protein Function | S. cerevisiae slowed by influenza A NS1, growth recovery by OD600 | Potency, µM (titrated, usually from 46.1 µM), inactives show top-dose activity, positive = more growth | 270,000 tested, 0.4% active; note: actives are rising curves; nearly all actives have a fitted effect of over 50% in size
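In this qHTS, NS1 from influenza A is expressed in budding yeast, where it slows growth. Cells are switched from glucose to 2% galactose medium (pH 6.0, -URA), treated with compound, and growth recovery is read at OD600.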
Starred values were filed as active, the others as inactive; ? = inconclusive; / = not tested or not shown; & = joins results of further samples; [ ] = another dose, or the depositor's remark. Unless noted, calls come from the whole dose curve; as a rule, active means well fitted rising curve with a large enough effect; inconclusive means small, poorly fitted or top-dose-only effect; inactive means no such curve, though single readings can be large or run the other way. Potency is the fitted concentration of half-maximal effect.

Fields: 2A StopGo	Cruzain Triton	SARS PLpro yeast	MARV entry inh	Lassa entry inh	RE007 growth inh	Cruzain inh noDet	NS1 inh
1: O=C(NC(=S)NC1CCCc2ccccc21)c1ccc(F)cc1 (stereo not drawn)
    -4%	/	-13%	?	?	9%	/	-14%
2: COc1ccc(N2CCN(C(=O)c3ccc(NC(=O)C4=CSCCO4)cc3)CC2)cc1
    -1%	/	-1%	/	/	-3%	/	-5%
3: CC(=O)Nc1cc(NC(C)=O)c(N=Nc2ccccc2)cc1C
    27%	/	0%	/	/	3%	/	-7%
4: CCc1ccc(OCCCC(=O)Nc2ccc(S(=O)(=O)Nc3cc(C)nc(C)n3)cc2)cc1
    28%	/	2%	8%[46.1 µM]	-18%	6%	/	-5%
5: O=C(NN1C(=O)/C(=C/c2cccnc2)SC1=S)C(c1ccccc1)c1ccccc1
    -20%	-2.4%	-19%	-1%	17%	-5%	-9%	-12%
6: CC(C)Cc1ccc(/C=C/C(=O)N2CCCCC2)cc1
    80%[activator]	/	-9%	?	?	-7%	/	/
7: COc1ccc(Nc2nnc(Cc3ccc(Cl)cc3)c(=O)[nH]2)c(OC)c1
    14%	-7.0%	3%	2%&2%	6%	1%	-26%	?
8: O=C(NCc1ccccc1)NC1(C(=O)N2CCN(c3ccccc3)CC2)CCCCC1
    8%	-1.0%	-6%	?	-2%	-5%	-2%	-13%
9: COc1ccc(CCNC(=O)CN2C(=O)COc3ccc(S(=O)(=O)N4CCCC4)cc32)cc1OC
    -7%&-12%	0.8%	8%	?	-5%[46.1 µM]	2%	-8%	?
10: CCOC(=O)c1ccccc1NC(=O)C1COc2ccccc2O1 (stereo not drawn)
    0%	-3.9%	-11%	-6%[46.1 µM]	-9%	-17%	?	-61%
11: CCCCNC(=S)NNC(=O)c1ccc(Br)o1
    14%	-2.1%	7%	24%	4%	-9%	-4%	-4%
12: O=C(CN1C(=O)C(c2ccc(F)cc2)=NC12CCCCCC2)Nc1ccc(F)c(Cl)c1
    ?	-7.3%	/	16%[46.1 µM]	5%[46.1 µM]	/	-17%	/
13: CCOC(=O)C(=CNc1ccccc1C)C(=O)OCC
    -27%	-3.2%	-3%	1%	23%	2%	5%	-6%
14: CC(C)CC(=O)Nc1ccnc(-c2ccncc2)n1
    7%	/	-1%	/	/	4%	/	-2%
15: O=C(CSc1nnc2c(n1)[nH]c1ccccc12)OCc1ccccc1
    -23%	-3.3%	7%	9%	2%	19%	25µM*	-3%
16: COc1ccc(NC(=O)Cc2ccc(Cl)cc2)cc1NC(=O)c1ccco1
    -26%	-0.8%	-13%	0%	-26%	-11%	-3%	-16%
17: COc1ccc(OCC(=O)O/N=C(\N)Cc2cccs2)cc1
    13%	-2.2%	-5%	?	8%	3%	-10%	-13%
18: COc1ccc(N2CCN(C(C)=C3C(=O)c4ccccc4C3=O)CC2)cc1
    27%	/	0%	/	/	-10%	/	-4%
19: COc1ccccc1-c1cc(C(=O)N2CCN(c3ccccc3)CC2)no1
    59%&-6%[activator]	-5.7%	-5%	?	10%&0%[46.1 µM]	-4%	-7%	-14%
20: Oc1ccc(-c2csc(Nc3ncccn3)n2)cc1O
    -75%	/	0%	?	?	-8%	/	/
21: COc1ccc(-c2ccccc2[C@H]2[C@@H]3C=CC[C@@H](C)[C@@H]3C(=O)N2Cc2ccccc2)cc1
    ?	-1.7%	-60%	/	/	-5%	-21%	/
22: CC(C)(C)NC(=O)CN1CCCN(C(=O)COc2ccc(Cl)c3ccccc23)CC1
    -10%	/	1%	-2%	?	-4%	/	/
23: O=C(Nc1ccc(F)cc1)C(c1ccccc1)N1CCN(S(=O)(=O)c2c(F)cccc2F)CC1 (stereo not drawn)
    -1%	-1.5%	3%	?	-3%	6%	?	26%
24: COc1ccc(C2c3c(n(C)c4ccccc34)C(=O)N2CC(=O)Nc2ccc(C)cc2Cl)cc1 (stereo not drawn)
    -18%	-5.4%	/	/	?	/	?	/
25: CCc1ccccc1NC(=O)c1cnn2c(C(F)(F)F)cc(-c3ccc(OC)c(OC)c3)nc12
    -12%	1.5%	/	-1%[46.1 µM]	10%[46.1 µM]	/	-8%	/
26: COc1ccc(CC(=O)NC(=S)Nc2cccc(C)c2)cc1
    14%	/	/	-1%[46.1 µM]	?	-27%	/	/
27: CC(Oc1ccccc1)c1nnc(N)s1 (stereo not drawn)
    -1%	/	1%	21%[46.1 µM]	5%	161%	/	4%
28: Cc1c(-n2cc(C(=O)O)c(=O)c3cc(F)c(N4CCCC4)c(F)c32)c(=O)n(-c2ccccc2)n1C
    8%	-5.5%	-5%	-3%&-3%	-1%	3%	-19%	-19%
29: Cc1cc(NC(=O)c2cc3ccccc3o2)no1
    8%	/	/	10%[46.1 µM]	-4%	9%	/	/
30: Cc1cc(C(=O)COC(=O)CCCN2C(=O)c3ccccc3C2=O)c(C)n1C
    10%	-1.0%	0%	-16%	7%	0%	2%	1%
31: Cc1c(NC(=O)Nc2ccc(F)c(Cl)c2)c(=O)n(-c2ccccc2)n1C
    -16%	0.4%	/	21%[46.1 µM]	5%[46.1 µM]	/	5%	/
32: Cc1ccc(-n2c(SCC(N)=O)nc3c(c2=O)C2(CCCC2)Cc2ccccc2-3)cc1
    22µM*	-11%	-4%	?	?	4%	-6%	?
33: CCCNC(=O)NS(=O)(=O)c1cnccc1Sc1ccc(Cl)cc1
    18%	-6.4%	2%	15%	2%	-6%	-2%	-1%
34: O=C(Cn1c2ccc(F)cc2c2nc3n(c(=O)c21)CCS3)NCC1CCCO1 (stereo not drawn)
    8%	/	2%	0%[46.1 µM]	-27%	-15%	/	0%
35: Cc1cccc(N=C/C(C(=O)C(F)(F)F)=C(\O)c2ccco2)c1
    8%	5.3%	-8%	?	?	/	15%	0%
36: Fc1ccc(-c2cnc(-c3cccs3)o2)cc1
    62%[activator]	-14%	-2%	11%	-2%	?	2%	5%
37: CCn1c(=O)c2sccc2n2c(CCCC(=O)NCc3cccnc3)nnc12
    -2%	/	0%	/	/	-17%	/	7%
38: O=C(CN1CCN(C(=O)N2CCOCC2)CC1)Nc1cc(Cl)ccc1Cl
    -36%	/	-7%	1%[46.1 µM]	-29%	13%	/	-17%
39: O=C1NC(=O)/C(=C\c2ccccc2OCc2ccccc2)S1
    15%	/	-1%	3%[46.1 µM]	9%[46.1 µM]	-29%	/	/
40: CSCC[C@@H](CO)NC(=O)c1ccc2nc(C3CCCCC3)oc2c1
    -1%	/	2%	/	/	3%	/	1%
41: COCCNc1c2c(nc3ccccc13)CCC2
    -16%	/	-7%	?	6%[46.1 µM]	12%	/	2%
42: Cc1nc(-c2ccccc2)sc1C(=O)CSc1ccc(F)cc1
    8%	-5.3%	-9%	1%	7%	0%	0%	-5%
43: O=C(O/N=C\c1ccc(N2CCOCC2)c([N+](=O)[O-])c1)c1ccccc1Cl
    -4%	-0.8%	-5%	-1%	-1%	-4%	?	-42%
44: CCOc1cc2c(cc1C(C)(C)C)NC(=O)CS2
    0%	-11%	-5%	-29%	?	-4%	3%	3%
45: c1ccc(CSc2nnc(-c3ccco3)o2)cc1
    66%[activator]	/	-1%	12%[46.1 µM]	21%	15%	/	-32%
46: O=C(CCC(=O)c1cccs1)NNC(=O)c1cccc(Cl)c1
    -20%	/	4%	-1%[46.1 µM]	16%	-7%	/	/
47: CN(C)S(=O)(=O)c1cccc(C(=O)NCCOC(=O)c2cc(F)c(F)cc2Cl)c1
    -20%	/	-4%	-4%[46.1 µM]	-12%[46.1 µM]	11%	/	-1%
48: O=C(Nc1cccc(C(=O)OCc2cc(=O)n3nc(C4CC4)sc3n2)c1)c1ccccc1
    -11%	8.7%	/	/	-1%[46.1 µM]	/	-1%	/
49: CCS(=O)(=O)N1CCC(C(=O)NCCCN2CCC(Cc3ccccc3)CC2)CC1
    -10%	-5.3%	-1%	17%	11%	-6%	11%	2%
50: COc1ccc(OC)c(NC(=O)CSC2=Nc3ccccc3C3=NC(CC(=O)NCc4ccco4)C(=O)N23)c1 (stereo not drawn)
    -23%	-4.9%	/	/	11%[46.1 µM]	/	?	/
51: Cc1c(Cl)cccc1NC(=O)CCS(=O)(=O)c1ccc2c(c1)CC(C)N2C(=O)C1CC1 (stereo not drawn)
    0%	-2.6%	/	/	?	/	12%	/
52: Cc1ccc(C)c(NC(=S)NC2CC3CCCC(C2)N3CC(C)C)c1 (stereo not drawn)
    6%	0.3%	-2%	?	-19%	-1%	-11%	9%
53: Fc1ccc(-c2n[nH]c(=S)n2Cc2ccccc2)cc1
    3%	/	1%	?	3%	12%	/	6%
54: CC(C)n1c(-c2ccc(N(C)C)cc2)nc2ccccc21
    2%	-1.1%	1%	-23%	?	-21%	10%	-93%
55: CC(C)CCNC(=O)CCCn1c(=O)[nH]c2ccc(Br)cc2c1=O
    -8%	-0.3%	6%	-39%	?	-1%	-19%	-8%
56: Fc1ccc(Oc2nc(-c3ccccn3)nc3ccccc23)cc1
    ?	/	-1%	?	-15%	-10%	/	-53%
57: CCN(CC)S(=O)(=O)c1cccc(NC(=O)COC(=O)c2cc(C)oc2C)c1
    -23%	-2.2%	0%	13%	-7%	28%	-5%	10%
58: CCS(=O)(=O)C1=NN2C(=N)/C(=C\c3ccc(OC(=O)c4ccco4)cc3)C(=O)N=C2S1
    -3%	/	?	/	/	18%	/	-14%
59: O=C(Cn1c(NCCO)nc2ccccc21)c1ccco1
    /	-2.3%	-1%	5%	7%	6%	-1%	-3%
